Bioassay records deposited in PubChem BioAssay by several laboratories.
Sa RN4220 lethal – growth inhibition of S. aureus RN4220, primary screen, OD600; 16 h; inhibition, % (test concentration not listed); hit rate 0.33% among 330,000;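 active = z-score of -3 or lower and OD600 up to 0.18 on both plates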;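 note: plate controls were untreated cells for no effect and reference antibiotic for full effect; stock transfer was 100 nL into about 80 µL; one replicate is shown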
PrP UTR inh – inhibition of PrP 5' UTR reporter expression. cell-based PrP 5' UTR mRNA reporter, plate reader. inhibition, % (no concentration beside the values). hit rate 0.35% among 340,000. AID 488862, 2010;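 active = every replicate at 50% or more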;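 note: 0 = median of the neutral control wells; tested in H4 reporter cells; numbers are from one replicate; inactives centre near -14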
Sa ugtP lethal – growth inhibition of ugtP-null S. aureus, primary screen, RN4220 ugtP deletion, OD600. 16 h; some inactives read as strong as hits. growth inhibition, % (concentration not given with the values). hit rate 0.54% among 330,000. AID 1259309, 2017;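 active = z-score under -3 and OD600 up to 0.15 on both plates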;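 note: plate controls were untreated wells for no effect and antibiotic for full effect; wells of about 80 µL received 100 nL stock; the first replicate is given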
Autofluor counter – counter-screen for toxin protease inhibitors: compound fluorescence; hit rate 3.1% among 360,000; compound autofluorescence counterscreen, microsphere flow cytometry; hits give high values; AID 624483; fluorescence intensity (test concentration not listed);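 active = at least 3 SD above the mean of all compounds, about 16000 in these data; inconclusive = too few beads counted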;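 note: 100 nL of 1 mM stock went into each well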
Mtb hypoxia rep – PubChem AID 1159583; M. tuberculosis hypoxia-regulated fluorescent reporter, fluorescence; fluorescence inhibition, % (no concentration beside the values); hit rate 0.1% among 300,000;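 active = 35 to 45% if threefold the growth effect, above 45% if 1.5-fold the growth effect; inactive = the rest, general growth blockers included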;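 note: wells of about 50 µL received 100 nL stock; 0% = vehicle wells and 100% = reference inhibitor wells; whole bacteria with a GFP reporter of the hypoxia response; strong numbers were not always called active; many hits fall short of the cut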
BJeLR lethal – MLPCN primary cell-based screen for lethality selective to Ras in HRASV12 cells. BJeLR (HRASV12) viability, CellTiter-Glo ATP luminescence, 48 h; reference of the scale not given here. inhibition, % (no concentration beside the values). hit rate 0.17% among 300,000. AID 1554, 2009;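 active = replicate mean above 50%; inconclusive = above 50% but judged a plate artefact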;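 note: 50 nL library stock added to about 25 µL; numbers are from one replicate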
Mtb hypoxia rep growth – second read-out of Mtb hypoxia rep, no call of its own (marks repeat the call); growth inhibition, %; measured here: M. tuberculosis growth (absorbance);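 0% = vehicle and 100% = reference antibiotic; read after six days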
* = called active by the depositor; ? = inconclusive; · = no result given.

nr	canonical_smiles	Sa RN4220 lethal	PrP UTR inh	Sa ugtP lethal	Autofluor counter
1	COc1ccc2c(c1)c(CC(=O)Nc1cccc(S(N)(=O)=O)c1)c(C)n2C(=O)c1ccc(Cl)cc1	-13	-1	18	4655
2	O=C(Cn1c(=O)oc2cc(S(=O)(=O)N3CCCC3)ccc21)NC1CCCc2ccccc21 (configuration not stated)	1.3	-5	15	5932
3	COc1ccccc1NC(=O)/C(=C\c1cccnc1)NC(=O)c1ccc(C)cc1	·	-31	·	5884
4	CCCc1ccc(-c2cc(C(=O)N/N=C/c3ccc([N+](=O)[O-])o3)c3ccccc3n2)cc1	·	17	·	3899
5	O=C(COc1ccccc1)NCC(=O)NN=Cc1cc(Br)ccc1OCc1ccccc1	-3.1	·	-6	·
6	Cc1ccc(-c2csc3ncnc(SCC(=O)O)c23)cc1	1.1	-19	14	4470
7	CCn1c(=O)n(CC)c2cc(NC(=O)c3ccccc3Cl)ccc21	0.8	-12	5	3031
8	COc1ccccc1N1CCN(C2CC(=O)N(c3ccccc3)C2=O)CC1 (configuration not stated)	3.8	-23	7	3696
9	Cc1ccc(C#N)c(SCCN2CCCCC2)n1	2.2	-24	6	4781
10	O=C1ON=C(c2ccccc2)/C1=C/c1ccco1	1.9	-12	-8	4185

nr	Mtb hypoxia rep	Mtb hypoxia rep growth	BJeLR lethal
1	11	-4	1
2	1	5	13
3	·	·	-11
4	·	·	22
5	13	-2	·
6	0	8	-8
7	10	2	8
8	2	2	0
9	6	-3	-7
10	-3	9	16

Further compounds.
nr	canonical_smiles	Sa RN4220 lethal	PrP UTR inh	Sa ugtP lethal	Autofluor counter
11	CCC(C)NC(=O)c1ccccc1NC(=O)/C(=C/c1ccc(OC)cc1)c1ccccc1 (configuration not stated)	0.1	-28	-12	9907
12	Cc1cc(C)nc(SCC(=O)Nc2ccc(Br)cn2)n1	0.1	-22	5	4707
13	Cc1nc2nc(SCC(=O)NCCN3CCOCC3)nn2c(C)c1Cc1ccccc1	4.0	-10	7	8987
14	CCn1c(SCC(=O)NC2CC2)nnc1-c1ccc(F)cc1	2.7	-21	4	6790
15	Cc1ccnc(NC(c2ccsc2)c2ccc3ccc(C)nc3c2O)c1 (configuration not stated)	14	-24	17	4291
16	CSc1cccc(CN2CCC(CO)(Cc3ccccc3)CC2)c1	0.4	-18	-10	4844
17	COc1ccc(OC)c(NC(=O)C2CCCN(S(=O)(=O)c3cccc4nonc34)C2)c1 (configuration not stated)	7.2	-27	-5	10280
18	Cc1cc2ccccc2n1CCNC(=O)Cc1ccccc1	-2.5	-8	1	1072
19	Cc1cc(Oc2ccc(-c3ccccc3)cc2)nc(N2CCOCC2)n1	-6.4	-11	1	3263
20	O=C(O)CCCCCCCCCC(=O)c1cccs1	0.9	-18	-12	3317

nr	Mtb hypoxia rep	Mtb hypoxia rep growth	BJeLR lethal
11	0	5	0
12	·	·	7
13	7	8	1
14	6	0	4
15	9	-2	-11
16	-5	-2	-1
17	9	9	2
18	-4	2	5
19	10	0	5
20	6	8	-4

Further results.
nr	canonical_smiles	Sa RN4220 lethal	PrP UTR inh	Sa ugtP lethal	Autofluor counter
21	O=C(Nc1ccc([N+](=O)[O-])cc1)NN1CCCCCC1	2.6	-16	-10	2914
22	O=C(CCS(=O)(=O)c1ccccc1)Nc1ccccc1F	2.0	0	3	2867
23	CCCOC(=O)Cn1cnc2scc(-c3ccc(C)cc3)c2c1=O	3.6	-22	1	3593
24	CC12C=CC3(O1)C(C(=O)N1CCCOC13)C2C(=O)O (configuration not stated)	-0.6	-28	1	4713
25	Cc1ccc(C(=O)NN(CCC(=O)NC(C)(C)C)C2=NS(=O)(=O)c3ccccc32)cc1	1.9	-24	4	2133
26	C[C@H](N)CN1CCc2ccc(Br)cc21	·	-23	·	5553
27	O=C(C1CC(c2ccccc2O)=NO1)N1CCCC1 (configuration not stated)	4.9	-4	2	7759
28	CCS(=O)(=O)N1CCC(C(=O)NCc2ccc(F)cc2Cl)CC1	1.7	-39	3	5367
29	CCN(CC)S(=O)(=O)c1cc(NC(=O)COC(=O)c2ccc(NC(=O)CC#N)cc2)ccc1C	-2.5	-17	4	4482
30	Fc1ccccc1COc1ccc(-c2nnn(Cc3ccccc3F)n2)cc1	-4.4	-18	7	5288

nr	Mtb hypoxia rep	Mtb hypoxia rep growth	BJeLR lethal
21	3	4	·
22	2	3	0
23	11	21	-9
24	-2	1	0
25	-6	6	-12
26	·	·	-4
27	8	5	3
28	8	16	-7
29	13	8	0
30	7	8	13

Later entries.
nr	canonical_smiles	Sa RN4220 lethal	PrP UTR inh	Sa ugtP lethal	Autofluor counter
31	O=C(Cn1ccc2cc(S(=O)(=O)N3CCCC3)ccc21)NCc1ccco1	0.7	-1	0	4545
32	Cc1ccnc(NC(=O)c2ccccc2NC(=O)c2ccc(Cl)cc2Cl)c1	1.7	-29	-3	3659
33	CC(C)c1ccc(NC(=S)NNC(=O)c2cccs2)cc1	4.4	-66	5	4518
34	CCc1nnc(NC(=O)C2Cc3ccccc3CN2S(=O)(=O)CC)s1 (configuration not stated)	0.8	-15	-3	5062
35	O=C(O)c1cccc(-c2ccc(/C=c3/sc4nc5ccccc5n4c3=O)o2)c1	·	-10	·	4651
36	CCCS(=O)(=O)N1CCCC(c2nc(-c3ccc(OC)cc3)no2)C1 (configuration not stated)	5.0	-14	4	11093
37	O=C(NCCN1CCc2ccccc2C1)Nc1ccc(F)cc1	2.9	3	3	5352
38	COc1ccccc1NC(=O)Cn1nnc(-c2ccccc2NS(=O)(=O)c2ccccc2)n1	8.2	11	-10	10021
39	CN(Cc1ccc2ccccc2c1)C(=O)c1ccc(C(F)(F)F)cc1	1.9	-18	19	4309
40	CC(=O)N=C1SC2CS(=O)(=O)CC2N1c1ccccc1Cl (configuration not stated)	0.5	-15	5	4655

nr	Mtb hypoxia rep	Mtb hypoxia rep growth	BJeLR lethal
31	-3	-17	-7
32	8	8	50
33	-14	-1	3
34	1	0	6
35	·	·	22
36	4	4	-1
37	·	·	-5
38	0	1	9
39	8	12	-15
40	·	·	9

More results:
nr	canonical_smiles	Sa RN4220 lethal	PrP UTR inh	Sa ugtP lethal	Autofluor counter
41	COCCCNC(=O)C1CC(=O)N(CCc2ccccc2)C1 (configuration not stated)	3.6	-24	3	11797
42	Cc1cccc(S(=O)(=O)NCCC(=O)OCC(=O)Nc2ccc(C#N)cc2)c1	4.1	-17	1	2391
43	Cc1ccnc(SCc2cn3c(C)cc(C)nc3n2)n1	2.1	-7	13	4183
44	COC(=O)c1ccccc1S(=O)(=O)N1CCC(NC(=O)C(Cc2cccc(OC)c2OC)NC(C)=O)CC1 (configuration not stated)	1.7	-6	3	5880
45	O=C(Nc1ccccc1N1CCCC1)c1ccc(Cl)c(S(=O)(=O)N2CCOCC2)c1	3.0	-15	5	7035
46	COc1cccc(C=Nn2c(SC)nnc2-c2ccccc2)c1OC	2.7	·	-5	·
47	O=C(CCc1c[nH]c2ccccc12)N=Nc1c(O)[nH]c2ccccc12	2.5	-12	0	2298
48	O=C(CSC(=S)N1CCCCC1)Nc1ncc2c(n1)CC(c1ccco1)CC2=O (configuration not stated)	-1.2	-72	-1	6439
49	CC(=NC1CCCC1)c1c(C)[nH]n(-c2nc3ccccc3s2)c1=O	8.7	3	7	3447
50	Cc1nc2[nH]onc2c2nccc(=O)c12	-0.6	-27	13	4157

nr	Mtb hypoxia rep	Mtb hypoxia rep growth	BJeLR lethal
41	5	3	1
42	1	-5	23
43	3	11	7
44	-5	1	-11
45	2	-7	21
46	-2	0	·
47	-5	4	-3
48	-17	-10	2
49	10	11	-5
50	·	·	-3

More records follow:
nr	canonical_smiles	Sa RN4220 lethal	PrP UTR inh	Sa ugtP lethal	Autofluor counter
51	CCN(CC)S(=O)(=O)c1ccc(C)c(NC(=O)CN2CCN(Cc3ccccc3)CC2)c1	1.9	-25	4	4435
52	CCOC(=O)CSc1nnc(-c2ccccc2OC)o1	4.0	-5	1	9752
53	CCOC(=O)c1cnc2ccc(OC)cc2c1NCCN1CCOCC1	2.8	-6	9	4015
54	Cc1cc(-c2ccc3c(c2)COc2c4ccccc4nn2-3)on1	2.5	12	9	3063
55	CCCCC(C)n1[nH]c(=O)c2c(C)cc(C)nc21 (configuration not stated)	4.0	-9	-5	4037
56	Cc1ccc(-c2nc3ccsc3c(=O)o2)cc1	2.8	-35	2	3312
57	O=C(N/N=C1/CCc2ccccc21)C1CC1	·	-54	·	3812
58	CCOC(=O)N1CCN(C(=O)c2ccccc2-c2ccccc2)CC1	-0.3	-19	-1	3767
59	CCC(C)N1C(=O)/C(=C\c2cc3c4c(c2)CCCN4CCC3)C(=O)NC1=S (configuration not stated)	-1.7	-14	6	4677
60	CCn1cc(CN2CCN(CC(C)(C)C)C(CCO)C2)c2ccccc21 (configuration not stated)	1.6	-18	3	3301

nr	Mtb hypoxia rep	Mtb hypoxia rep growth	BJeLR lethal
51	3	-2	-5
52	10	10	-2
53	8	-8	7
54	8	7	3
55	-11	-4	-7
56	·	·	6
57	·	·	9
58	·	·	22
59	8	11	-3
60	6	7	-2

(more compounds)
nr	canonical_smiles	Sa RN4220 lethal	PrP UTR inh	Sa ugtP lethal	Autofluor counter
61	Cc1c(C(=O)N2CCc3ccccc32)oc2ccccc12	10	-122	56	8233
62	COc1ccc(C(CNC(=O)c2ccc(Br)o2)N2CCN(C)CC2)cc1 (configuration not stated)	-1.2	-19	-2	?
63	COc1ccc(CC(O)=C(C#N)c2nc3ccccc3s2)cc1	77	·	73	·
64	O=C(CCCCl)OCc1cn(-c2ccc(Cl)cc2)nn1	-4.2	-2	-9	3537
65	O=C(COC(=O)c1cc(Cl)ccc1[N+](=O)[O-])NC1CC1	5.1	-11	10	·
66	CCc1ccc(C(C)NC(=S)NCc2ccc(F)cc2)cc1 (configuration not stated)	-6.5	10	-12	5682
67	Cc1ccc2nsnc2c1S(=O)(=O)NCc1ccc2c(c1)OCO2	6.7	-22	-3	?
68	COC(=O)c1cc(NC(=O)c2ccc(C)cc2)c(=O)oc1C	-0.9	-29	3	4045
69	Cc1ccc(NC(=O)c2cc(-c3ccc4c(c3)OCO4)on2)cc1C	-3.2	-4	-6	3272
70	Cn1c(N)c(C(=O)COC(=O)c2cc(C3CC3)nc3ccccc23)c(=O)n(C)c1=O	3.0	-11	-19	4171

nr	Mtb hypoxia rep	Mtb hypoxia rep growth	BJeLR lethal
61	7	8	-6
62	-3	6	-1
63	16	12	·
64	-6	-4	3
65	0	4	·
66	-1	-4	4
67	9	18	5
68	-1	-1	1
69	-7	-4	8
70	-11	8	-10

Whole records as entered above. Values in the order: Sa RN4220 lethal, PrP UTR inh, Sa ugtP lethal, Autofluor counter, Mtb hypoxia rep, Mtb hypoxia rep growth, BJeLR lethal
CCc1ccc(C(C)NC(=S)NCc2ccc(F)cc2)cc1 (configuration not stated) as listed: -6.5, 10, -12, 5682, -1, -4, 4
O=C(CCCCl)OCc1cn(-c2ccc(Cl)cc2)nn1 as listed: -4.2, -2, -9, 3537, -6, -4, 3
O=C(COC(=O)c1cc(Cl)ccc1[N+](=O)[O-])NC1CC1 as listed: 5.1, -11, 10, ·, 0, 4, ·
COc1ccc(C(CNC(=O)c2ccc(Br)o2)N2CCN(C)CC2)cc1 (configuration not stated) as listed: -1.2, -19, -2, ?, -3, 6, -1

Next part
nr	canonical_smiles	Sa RN4220 lethal	PrP UTR inh	Sa ugtP lethal	Autofluor counter
71	COc1ccc(OC(C)C(=O)Nc2cccc(OC)c2)cc1 (configuration not stated)	3.7	3	0	3127
72	COc1cc2c(cc1OC)/C(=C/C(=O)c1ccccc1F)NCC2	5.5	-6	10	3908
73	CC(C)n1c(N2CCN(C(=O)NCc3ccccc3)CC2)nc2ccccc21	0.9	-31	-1	9056
74	O=C(NCc1cccnc1)C1CCCN1S(=O)(=O)c1ccc(Cl)cc1 (configuration not stated)	1.5	-11	5	3930
75	CSCCC(NC(=O)c1cccc(C)c1)C(=O)Nc1sccc1C(N)=O (configuration not stated)	6.3	-15	2	3717
76	Cc1cc2nc(C3CCN(CC4COc5ccccc5O4)CC3)[nH]c2cc1C (configuration not stated)	-1.5	-22	-12	10977
77	CCN(CC)c1ccc(NC(=O)c2ccc(Cl)nc2)cc1	0.4	-56	6	4186

nr	Mtb hypoxia rep	Mtb hypoxia rep growth	BJeLR lethal
71	·	·	3
72	8	0	-7
73	3	3	3
74	-16	4	-3
75	-3	0	5
76	25	30	-9
77	·	·	30
